# Screens (PubChem)
# UCH37 inh – inhibitors of human UCH37 deubiquitinase, primary screen, biochemical, Ub-AMC cleavage, fluorescence; Ubiquitin carboxyl-terminal hydrolase isozyme L5 (Homo sapiens), Q9Y5K5; purified proteasome/UCH37; inhibition, % (concentration not given with the values); 0.33% of 330,000 active; AID 588478, 2011;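 active = mean of two replicates above 20%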;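 note: 0% = compound-free wells with enzyme and 100% = wells lacking proteasome; stock transfer was 100 nL into about 20 µL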
# Target sequence (Q9Y5K5 whole entry, looked up): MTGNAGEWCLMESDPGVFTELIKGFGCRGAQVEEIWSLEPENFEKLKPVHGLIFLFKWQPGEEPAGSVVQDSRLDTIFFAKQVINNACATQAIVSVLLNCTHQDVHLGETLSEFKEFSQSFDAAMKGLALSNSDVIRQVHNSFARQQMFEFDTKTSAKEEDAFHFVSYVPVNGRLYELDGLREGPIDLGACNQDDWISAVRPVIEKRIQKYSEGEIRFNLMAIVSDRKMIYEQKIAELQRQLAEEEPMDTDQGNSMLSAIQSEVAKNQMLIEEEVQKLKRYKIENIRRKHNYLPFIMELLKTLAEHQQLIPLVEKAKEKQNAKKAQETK
#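 Test system – human UCH37 enzyme supplied as purified proteasome complex · Incubation – 30 min preincubation with enzyme, 25 min cleavage at room temperature · Detection – AMC fluorescence from Ub-AMC cleavage, excitation 355 nm, emission 460 nm · Benchmarks – no-proteasome wells (full inhibition) and compound-free wells (no inhibition)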
# LANA-H2A inh – blockers of LANA interaction with H2A/H2B – biochemical, FP readout, HTS, primary screen. Protein LANA1 (Human herpesvirus 8 type P (isolate GK18)), Q9QR71. cell-free LANA-H2A/H2B peptide, fluorescence polarization. inhibition, % (test concentration not listed). 0.6% of 320,000 active. AID 2629, 2010; in the data active = inhibition mostly above about 10%, no sharp cut-off; inactive = mostly below about 6.7%;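 note: stock transfer was 7.5 nL into about 10 µL; 0% = median of vehicle wells and 100% = median of positive control wells; one replicate is shown; the record names a cut of 25% in any replicate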
# Beta2AR agonist – beta2AR agonists driving receptor internalization, primary screen, cell-based, FAP fluorogen, flow cytometry; Beta-2 adrenergic receptor (Homo sapiens), P07550; Am2.2-beta2AR cells; reference of the scale not given here; response, % (test concentration not listed); 0.43% of 340,000 active; AID 504454, 2011;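 active = response above a set limit, near 3 SD of response in nonfluorescent compounds, cut at about 42% in these data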;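 note: stock transfer was 100 nL into about 11 µL; a reference agonist was the positive control; negative values mostly stem from fluorescent compounds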
# Target sequence (P07550 whole entry, looked up): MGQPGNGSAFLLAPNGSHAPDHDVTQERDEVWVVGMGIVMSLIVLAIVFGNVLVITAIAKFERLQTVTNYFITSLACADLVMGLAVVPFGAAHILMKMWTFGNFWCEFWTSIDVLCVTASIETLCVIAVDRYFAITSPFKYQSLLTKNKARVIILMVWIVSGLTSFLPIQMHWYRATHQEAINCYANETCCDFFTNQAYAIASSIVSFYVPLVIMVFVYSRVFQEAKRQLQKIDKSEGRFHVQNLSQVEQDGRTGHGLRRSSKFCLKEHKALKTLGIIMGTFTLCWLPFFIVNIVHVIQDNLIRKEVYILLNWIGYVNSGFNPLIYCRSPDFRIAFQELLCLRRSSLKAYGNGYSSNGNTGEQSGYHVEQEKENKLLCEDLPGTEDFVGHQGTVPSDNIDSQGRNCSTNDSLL
# E coli growth – E. coli growth inhibition, primary screen, OD600; Escherichia coli growth, 23 h; active compounds read low; OD600 absorbance (no concentration beside the values); 0.21% of 330,000 active; AID 1053175, 2014;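 active = OD600 absorbance below the run mean of sample wells minus 3.6 SD, in any replicate, cut at about 0.56 in these data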;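 note: stock transfer was 300 nL into about 60 µL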
# HNF4A DNA FP – change in binding of human HNF4A to DNA, primary screen, biochemical, fluorescence polarization, FITC-DNA. Hepatocyte nuclear factor 4-alpha (Homo sapiens), P41235. 1 h. activity change, % at 10 µM. 0.3% of 360,000 active; in the data active = activity change above about 30%, passing the limit was not always enough;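 note: controls were the assay level and a saturating level of protein; the project sought stronger binding though the title names inhibitors; some compounds called inactive have numbers as strong as hits; positive values seem to mean higher polarization but the record does not say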
# Bfl-1 A1 inh – caspase 3/7 activation in MEF A1-2A-BIM cells, primary screen, A1 inhibitor project, cell-based, luminescence, HTS; Caspase-Glo 3/7 luminescence, 3 h; percent of clofoctol response, vehicle zero; caspase activation, % (concentration not given with the values); 0.066% of 330,000 active; AID 2462, 2010;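 active = over half of replicate activation scores above 10%, or exactly half above 10 with the replicate mean above 10; inconclusive = replicate mean below 10 yet half the replicates above 10; inactive = over half of replicates below 10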;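 note: wells of about 30 µL received 50 nL stock; many hits fall short of the cut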
# Vif TR-FRET – inhibitors of Vif binding to APOBEC3G peptide, primary screen, biochemical, TR-FRET, GST-Vif 1-94, biotin-A3G peptide, dose response retest (AID 1117319); Virion infectivity factor (Human immunodeficiency virus type 1 group M subtype B (isolate …; TR-FRET GST-Vif / biotin-A3G peptide binding; higher % means a stronger effect; test concentration not given here; strong numbers were not always called active; inhibition, %; hits with a dose series show IC50 in µM; 0.57% of 260,000 active;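 active = above the screen mean plus three standard deviations and confirmed in dose response; inconclusive = results disagree or hit not tested in dose response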;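 note: Vif residues 1-94 fused to GST binding biotinylated APOBEC3G peptide 110-148; 0% = full assay without inhibitor and 100% = GST in place of GST-Vif; retest series ran down from 100 µM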
# Numbers without * were called inactive; ? = inconclusive; · = not tested or not shown.
SMILES,UCH37 inh,LANA-H2A inh,Beta2AR agonist,E coli growth,HNF4A DNA FP,Bfl-1 A1 inh,Vif TR-FRET
CC(C)(C)NC(=O)C[C@H]1C[C@H](C(=O)N2CCOCC2)[C@@]2(CCC3CCCC3)c3[nH]c4cc(-c5ccco5)ccc4c3CCN2C1=O,-19,·,11,0.68,6.2,·,9%
COc1ccccc1N/C(=N/S(=O)(=O)c1ccc(Cl)cc1)c1ccccc1,0.9,4.2,0,0.65,5.1,0.1,24%
COc1ccc(OC)c(NC(=O)CNC(=O)Cn2cnc3ccccc3c2=O)c1,0.8,-0.4,0,0.7,0.2,0.5,?
COc1ccccc1CCNC(=O)C(=O)NCC1OCCN1S(=O)(=O)c1cc(F)ccc1F (stereo not drawn),3.9,0.9,-6,0.82,7.4,0.8,·
Cc1ccccc1OCC(=O)O/N=C(\N)Cc1cccs1,3.2,-2.3,4,0.68,0.3,-0.1,3%
CCc1ccc(/C=C2\CN(CC)Cc3c2nc2ccccc2c3C(=O)O)cc1,-1.6,-4.4,0,0.69,7.9,0.6,18%
Cc1nnc(SCC(=O)Nc2ccccc2F)n1Cc1ccco1,0.5,-4.1,-19,0.65,2.3,1.9,·
COc1ccc(OCC(=O)N(Cc2ccc(C)o2)C2CCS(=O)(=O)C2)cc1 (stereo not drawn),-0.5,-1.2,0,0.64,0.6,-1.3,-1%
Cc1cc(NS(C)(=O)=O)c(=O)n(Cc2c(F)cccc2Cl)c1,-3.8,-3.1,-5,0.67,-0.4,0.7,-3%
COc1cc(NC(=O)c2cccc(Cl)c2)ccc1NC(=O)c1cccs1,0.4,0.9,-6,0.72,-167,-1.2,2%
O=C(NCc1cccs1)C1CC(O)CN1C(=O)Nc1ccccc1 (stereo not drawn),0.8,-2.4,-6,0.6,0.4,0.7,·
Cc1nc(NC(=O)COC(=O)C2CC3CCCC(C2)C3=O)c(Cl)cc1Cl (stereo not drawn),-0.4,-1.8,-1,0.66,0.5,-0.3,-2%
CCn1cc(C2=NOC(C(=O)Nc3cc(OC)c(Cl)cc3OC)C2)c(C)n1 (stereo not drawn),4.1,0.8,3,0.69,1.0,0.5,-2%
COc1ccc(-c2csc3ncnc(Nc4ccc(O)cc4)c23)cc1,2.4,0.8,-8,0.72,0.4,1.3,?
COc1cccc(/C=C/C(=O)OCC(=O)NCc2ccc(Cl)cc2)c1,-6.0,-7.7,-7,0.69,-3.0,-0.9,-2%
O=C(NCc1ccco1)C(=S)N1CCCC1,1.4,-4.0,-4,0.73,2.2,0.3,1%
CCOC(=O)C1(C)Oc2ccc(S(=O)(=O)CC)cc2NC1=O (stereo not drawn),1.2,-3.8,6,0.71,0.6,0.1,-6%
S=C(NCc1ccco1)Nc1ccc2c(c1)OCCO2,4.2,-1.9,-2,0.68,5.5,-1.5,18%
CC(C)(C)c1cc(NC(=O)COC(=O)c2nccnc2N)n(-c2ccccc2)n1,-432,0.9,-12,0.71,3.3,0.1,1%
COc1ccc(NCC(=O)Nc2cccc(S(=O)(=O)N3CCCC3)c2)cc1Cl,0.9,-1.3,13,0.71,3.2,-0.8,·
COC(=O)c1c(NC(NC(=O)C(C)C)C(Cl)(Cl)Cl)sc2c1CCCC2 (stereo not drawn),4.2,0.2,2,0.7,2.8,-0.1,-1%
Cc1cc(NS(=O)(=O)c2ccc(NC(=S)NC(=O)c3ccncc3)cc2)no1,1.9,1.6,-3,0.69,-1.4,0.1,13%
CCCCCCOc1ccc(C(=O)O)cc1C#N,1.9,5.1,9,0.69,1.2,-5.0,·
COc1ccc(C(=O)Oc2ccc3oc(=O)sc3c2)cc1,2.9,-5.5,-1,0.67,-0.6,-2.3,13%
COc1ccc(C2C(C(C)=O)=C(O)C(=O)N2CCc2ccccc2)c(OC)c1 (stereo not drawn),7.7,-0.6,11,0.65,0.8,0.1,3%

# Single records, as listed above. Values in the order: UCH37 inh	LANA-H2A inh	Beta2AR agonist	E coli growth	HNF4A DNA FP	Bfl-1 A1 inh	Vif TR-FRET
# COc1cc(NC(=O)c2cccc(Cl)c2)ccc1NC(=O)c1cccs1 is entered as 0.4	0.9	-6	0.72	-167	-1.2	2%
# O=C(NCc1ccco1)C(=S)N1CCCC1 is entered as 1.4	-4.0	-4	0.73	2.2	0.3	1%
# CC(C)(C)c1cc(NC(=O)COC(=O)c2nccnc2N)n(-c2ccccc2)n1 is entered as -432	0.9	-12	0.71	3.3	0.1	1%
# CCn1cc(C2=NOC(C(=O)Nc3cc(OC)c(Cl)cc3OC)C2)c(C)n1 (stereo not drawn) is entered as 4.1	0.8	3	0.69	1.0	0.5	-2%
# COc1ccc(NCC(=O)Nc2cccc(S(=O)(=O)N3CCCC3)c2)cc1Cl is entered as 0.9	-1.3	13	0.71	3.2	-0.8	·

# More results
SMILES,UCH37 inh,LANA-H2A inh,Beta2AR agonist,E coli growth,HNF4A DNA FP,Bfl-1 A1 inh,Vif TR-FRET
O=C(Cn1nnc(-c2ccccc2)n1)Nc1ccc2c(c1)OCO2,7.9,1.2,-12,0.79,-0.5,-0.4,6%
COC(=O)CCCC1=CC2=CC(=O)C(C)(OC(=O)c3cccs3)C(=O)C2=CN1C1CCCC1 (stereo not drawn),2.5,3.8,0,0.73,2.6,-0.4,?
NC(=O)c1ccccc1OCc1nc2ccccc2s1,-3.4,2.7,1,0.63,3.8,-5.9,1%
CC(=O)Oc1ccc(C(=O)[C@H]2[C@H]3C(=O)N(c4ccccc4)C(=O)[C@H]3[C@@H]3C=CC=NN32)cc1,4.6,2.8,-3,·,13,0.4,·
CC(=O)c1ccc(NC(=O)Nc2cccnc2)cc1,4.3,2.4,-1,0.69,1.1,0.2,·
O=S(=O)(Nc1cccc(-c2ccc3nncn3n2)c1)c1cccc(F)c1,1.8,4.7,1,0.64,0.9,-0.4,-2%
CCc1ccccc1NC(=O)CN1C(=O)C2CCCN2c2ncc(Cl)cc21 (stereo not drawn),-1.4,-0.7,4,0.75,16,0.5,-2%
O=C(NNC1=Nc2ccccc2SC1)c1ccc(Cl)cc1,4.1,-3.2,0,0.62,1.2,-0.3,-11%
COC(=O)/C=C1\N/C(=N\c2nc(C)cc(C)n2)N(c2ccc(Cl)cc2)C1=O,3.5,-6.0,-10,0.66,6.5,0.3,8%
CCOC(=O)N1CCN(CC(=O)c2ccc3c(c2)CCN3)CC1,6.0,-4.1,-7,0.71,3.0,2.2,10%
COc1ccc(-c2nnc(SCC(=O)Nc3ncc(C)s3)n2-c2ccccc2)cc1OC,3.6,6.9,-10,0.71,2.5,-1.5,7%
Cc1ccc(NC(=O)c2ncn(CC(=O)NCC(C)c3ccccc3)n2)cc1C (stereo not drawn),-0.1,·,0,0.67,0.9,·,·
O=C(Nc1ccccc1-c1nc2ccccc2s1)c1ccc(Br)o1,-7.3,-0.5,6,0.78,-1.2,0.6,?
O=C(/C=C/c1ccccc1[N+](=O)[O-])Nc1cc(S(=O)(=O)N2CCOCC2)ccc1N1CCOCC1,5.4,·,9,0.66,2.3,·,·
COCCN(C(=O)COC(=O)C(c1ccccc1)c1ccccc1)c1c(N)n(Cc2ccccc2)c(=O)[nH]c1=O,2.8,0.3,9,0.67,0.7,0.7,-2%
CC(C)(C)c1ccc(-c2nnc(SC3CCOC3=O)n2Cc2ccccc2)cc1 (stereo not drawn),5.8,0.2,7,0.7,0.6,2.1,·
COCc1nn2c(N)c(C#N)cnc2c1-c1ccccc1,4.3,-0.7,5,0.71,0.5,0.1,-5%
CN(C)S(=O)(=O)c1ccc(C(=O)Nc2cc3c(cc2C(=O)O)OCCCO3)cc1,5.0,9.2,7,0.67,-1.1,-0.2,·
COc1ccc(NC(=O)c2ccccc2NC(=O)NC2CCCCC2)cc1,0.0,4.0,0,0.72,1.9,1.0,-2%
[O-]/[N+](=C/c1ccco1)c1ccccc1,11,1.4,14,0.71,1.8,0.1,2%
COC(=O)c1sccc1OCc1cccc(OC)c1,2.8,-2.3,2,0.68,2.4,1.4,-9%
O=C(Nc1cccnc1)c1ccc2c(c1)OCO2,1.4,1.3,2,0.71,-1.2,-3.8,-14%
CC(C)CNc1ncnc2[nH]ncc12,5.9,·,-2,0.72,5.8,·,7%
O=C(CC1C(=O)NCCN1Cc1ccccc1C(F)(F)F)NCCn1cccn1 (stereo not drawn),6.4,3.3,2,0.68,-0.6,0.4,·
COc1ccc(N(CC(=O)N2c3ccccc3CC2C)S(=O)(=O)c2c(C)nn(C)c2C)cc1 (stereo not drawn),2.6,-1.9,-7,0.71,1.1,0.1,1%

# Next records:
SMILES,UCH37 inh,LANA-H2A inh,Beta2AR agonist,E coli growth,HNF4A DNA FP,Bfl-1 A1 inh,Vif TR-FRET
COc1ccc(/C=N/Nc2ccc([N+](=O)[O-])cc2)cc1Cn1cc([N+](=O)[O-])cn1,·,-2.3,-8,·,13,-0.1,?
CCOc1ccc(C2=Nn3c(nnc3-c3cccnc3)SC2)cc1,3.9,-4.6,-17,0.69,9.2,-0.3,12%
CC(C)CC(NC(=O)OC(C)(C)C)C(=O)NC(C(=O)N1CCCC1C(N)=O)C(C)C (stereo not drawn),-2.2,-2.5,-3,0.72,-1.9,0.8,13%
CCCCN(C)C1CCN(C(=S)Nc2ccc(OCC)cc2)CC1,1.0,1.2,-2,0.68,-0.4,0.5,·
O=C1CSC(=Nc2cccc(C(=O)O)c2)N1,3.7,-2.3,-3,0.66,6.5,0.1,·
Cc1ccc(Cc2nnc3n(-c4ccccc4)nc(C(=O)c4ccccc4)n3c2=O)cc1,7.2,3.8,-1,0.72,1.6,0.2,-14%
CN(CC(=O)Nc1ccccc1Cl)C(=O)C1CCN(C(=O)c2ccc(F)cc2)CC1,-1.2,6.6,-13,0.69,-0.3,-0.9,9%
CC1CCN(S(=O)(=O)c2ccc3c(c2)N(CC(=O)NCc2cccnc2)C(=O)CS3)CC1,0.4,-5.1,-5,0.68,3.7,-0.8,·
CCn1nc(NC(=O)COC)c2cc3cccc(C)c3nc21,-111,1.0,-6,0.61,1.8,-0.1,-5%
CN(NC1OC(=O)c2ccccc21)c1ccccc1[N+](=O)[O-] (stereo not drawn),9.4,0.8,-2,0.71,-2.1,-0.1,-11%
COc1ccc(NC(=O)Cn2c(=O)n(-c3ccccc3)c(=O)c3oc4ccccc4c32)c(OC)c1,·,0.7,3,·,2.4,1.6,·
CN(C(=O)c1cccc(NC(=O)Cc2cccc(NC(=O)C3CCN(C(=O)C4CCC4)CC3)c2)c1)C1CCC1,-1.3,·,-4,0.69,0.4,·,-1%
Cc1ccc(S(=O)(=O)N2CCN(C(=O)CSc3nc(N)cc(=O)[nH]3)CC2)c(C)c1,2.0,0.2,-4,0.69,-6.1,-0.4,5%
COc1cccc(C2/C(=C(\O)c3ccc4c(c3)OCCO4)C(=O)C(=O)N2CCCn2ccnc2)c1 (stereo not drawn),12,-1.1,-1,0.67,0.5,2.0,·
COc1ccc(CCNC(=O)CSc2nnc(CNC(=O)c3ccccc3F)o2)cc1OC,0.5,-4.2,1,0.71,0.1,-0.1,?
CCN(CC)CCN(C(=O)c1ccc2c(c1)OCCO2)c1nc2c(Cl)cccc2s1,4.8,-2.9,4,0.68,-0.3,0.4,2%
Cc1cccc(COCC(CC(C)C)N2CCN(C(=O)c3ccc(C(F)(F)F)cc3)CCC2=O)c1 (stereo not drawn),1.0,-3.3,-6,0.71,4.5,0.0,·
CC(=O)c1c(N)nc2n(c1=O)CCCCC2,1.2,-8.4,-5,0.73,-2.9,0.6,1%
